Cdc42 wt GTP = modulators of GTP binding to wildtype Cdc42, primary screen, biochemical, multiplex bead flow cytometry, Bodipy-GTP; Cell division control protein 42 homolog (Homo sapiens), P60953; GST-Cdc42 beads; actives lie on both sides; percent activity (GTP binding), % at 10 µM; 190,000 compounds, 0.2% hits; AID 761, 2007;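 active = percent activity GTP binding at least 20 points away from the 100% baseline, either down as inhibitor or up as activator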;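 note: median bead fluorescence of bound Bodipy-FL-GTP at 100 nM; 0% = excess unlabeled GTP control and 100% = no compound control; below 100% means less GTP binding so inhibitor and above means activator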
Target sequence (P60953 whole entry, looked up): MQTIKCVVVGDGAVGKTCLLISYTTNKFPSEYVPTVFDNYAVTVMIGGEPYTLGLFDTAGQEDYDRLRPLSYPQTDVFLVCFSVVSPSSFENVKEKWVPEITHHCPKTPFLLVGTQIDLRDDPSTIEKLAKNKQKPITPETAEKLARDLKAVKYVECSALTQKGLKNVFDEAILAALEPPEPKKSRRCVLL
Rac1 wt modul = wildtype Rac1 GTP binding modulators, primary screen, biochemical, GST-Rac1 beads, flow cytometry, multiplex | Ras-related C3 botulinum toxin substrate 1 (Homo sapiens), P63000 | fluorescent GTP binding; actives lie on both sides; 0 = cold GTP competed, 100 = untreated | GTP binding activity (% of control), % at 10 µM | 190,000 compounds, 0.27% hits | AID 757, 2007;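 active = GTP binding activity at least 20 points away from the 100% control level, either lower or higher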
Rab7 wt modul = modulators of GTP binding to Rab7, primary screen, biochemical, wildtype, multiplex bead flow cytometry | Rab7 GTPase wild type (dog), Bodipy-FL-GTP binding | GST-Rab7 beads, fluorescent GTP binding; actives lie on both sides; untreated = 100%, excess cold GTP = 0% | GTP binding activity (percent of control), % at 10 µM | 190,000 compounds, 0.055% hits | AID 758, 2007;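 active = fluorescent GTP binding to Rab7 beads changed by at least 20 points from the 100% baseline, either direction, mostly lower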;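 note: median green fluorescence of bound Bodipy-FL-GTP per Rab7 bead population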
Rab2A wt mod = modulators of GTP binding to Rab2A wildtype, primary screen, biochemical, dog, bead-based flow cytometry, multiplex; GST-Rab2 wt beads, Bodipy-GTP binding; AID 760, 2007; 190,000 compounds, 0.19% hits; GTP binding activity, % at 10 µM;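 active = GTP binding activity at least 20 points away from 100%, either lowered or raised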;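 note: 0% = beads with excess unlabeled GTP and 100% = no-compound control corrected for plate trend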
Rac1 act GTP bind = GTP binding modulators of activated mutant Rac1, primary screen, biochemical, bead-based flow cytometry, multiplex, fluorescent GTP; Ras-related C3 botulinum toxin substrate 1 (Homo sapiens), P63000; GST-Rac1 activated beads; actives lie on both sides; 100% means binding = to untreated wells; percent activity (GTP binding), % at 10 µM; 190,000 compounds, 0.11% hits;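 active = GTP binding at least 20 percentage points away from the 100% baseline, in either direction, so actives lie on both sides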
HRas wt GTP bind = modulators of GTP binding to HRas wildtype, primary screen, biochemical, bead-based flow cytometry, multiplex; GST-Ras wt beads, Bodipy-FL-GTP binding; actives lie on both sides; GTP binding activity, % at 10 µM; GTPase HRas (Homo sapiens), P01112; 190,000 compounds, 0.14% hits;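 active = GTP binding activity at least 20% away from the 100% baseline, either lowered as inhibitor or raised as activator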;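 note: 0% = unlabeled GTP competition control and 100% = no-compound control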
Target sequence (P01112 whole entry, looked up): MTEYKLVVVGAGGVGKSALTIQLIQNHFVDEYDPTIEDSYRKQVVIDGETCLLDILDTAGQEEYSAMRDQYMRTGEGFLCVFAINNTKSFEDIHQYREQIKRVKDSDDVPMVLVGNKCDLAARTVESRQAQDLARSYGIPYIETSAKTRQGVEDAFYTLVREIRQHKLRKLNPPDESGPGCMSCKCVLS
An asterisk follows results filed as active; & = joins results of further samples.

Below each compound – Rab2A wt mod, Rac1 act GTP bind, HRas wt GTP bind, Cdc42 wt GTP, Rac1 wt modul, Rab7 wt modul
NC(=O)C1CCN(C(=O)Nc2ccccc2)CC1
    107.0, 103.0, 106.0, 106.0, 105.0, 109.0
Cc1onc(-c2c(Cl)cccc2Cl)c1C(=O)NC1C(=O)N2C1SC(C)(C)C2C(=O)O (stereo not given)
    98.0, 94.0, 98.0, 96.0, 96.0, 103.0
CN(C)c1ccc(O)c2c1CC1CC3[C@@H](N(C)C)C(=O)C(C(N)=O)=C(O)[C@]3(O)C(=O)C1=C2O (stereo not given in full)
    98.0, 96.0, 96.0, 102.0, 102.0, 93.0
COc1cccc2c1C(=O)c1c(O)c3c(c(O)c1C2=O)C[C@@](O)(C(=O)CO)C[C@@H]3O[C@H]1C[C@H](N)[C@H](O)[C@H](C)O1
    84.0, 83.0, 83.0, 82.0, 90.0, 83.0
O=c1ccn([C@@H]2O[C@H](CO)[C@@H](O)[C@H]2O)c(=O)[nH]1
    102.0, 100.0, 102.0, 105.0, 102.0, 100.0
CN(C)CCCN1c2ccccc2Sc2ccc(C(F)(F)F)cc21
    101.0, 100.0, 99.0, 102.0, 103.0, 95.0
C=C(CC)C(=O)c1ccc(OCC(=O)O)c(Cl)c1Cl
    96.0, 94.0, 96.0, 89.0, 93.0, 95.0
O=C(N/N=C/c1ccc(Sc2ccccn2)o1)c1cccc([N+](=O)[O-])c1
    98.0, 98.0, 101.0, 100.0, 101.0, 101.0
CN1CCN(CCCN2c3ccccc3Sc3ccc(C(F)(F)F)cc32)CC1
    97.0, 103.0, 99.0, 101.0, 103.0, 93.0
C[C@]12CCC(=O)C=C1CC[C@@H]1[C@@H]2[C@@H](O)C[C@@]2(C)[C@H]1CC[C@]2(O)C(=O)CO
    99.0, 101.0, 103.0, 103.0, 103.0, 97.0
Nc1ccc(C(=O)O)c(O)c1
    95.0&101.0&100.0, 97.0&97.0&99.0, 93.0&100.0&99.0, 95.0&104.0&103.0, 96.0&99.0&103.0, 97.0&94.0&98.0
CC[C@H]1CN2CCc3cc(OC)c(OC)cc3[C@@H]2C[C@@H]1C[C@H]1NCCc2cc(OC)c(OC)cc21
    97.0, 99.0, 97.0, 101.0, 102.0, 90.0
CCN(CC)CC(=O)Nc1c(C)cccc1C
    97.0&101.0, 100.0&98.0, 96.0&101.0, 100.0&99.0, 102.0&100.0, 93.0&102.0
CC[C@H](C)C(=O)O[C@H]1C[C@@H](C)C=C2C=C[C@H](C)[C@H](CC[C@@H]3C[C@@H](O)CC(=O)O3)[C@H]21
    100.0, 100.0, 102.0, 101.0, 105.0, 98.0
CCOC(=O)c1c(N)sc(N)c1C(=O)OCC
    99.0, 98.0, 99.0, 100.0, 102.0, 103.0
Cc1ccc(S(=O)(=O)NC(=O)NCCCCNC(=O)NS(=O)(=O)c2ccc(C)cc2)cc1
    101.0, 96.0, 101.0, 103.0, 101.0, 104.0
Nc1nnc(-c2cccc(Cl)c2Cl)c(N)n1
    98.0, 99.0, 98.0, 103.0, 97.0, 95.0
COCc1cc(C)nc(SCC(=O)c2ccc(O)c(O)c2)c1C#N
    99.0, 97.0, 99.0, 100.0, 99.0, 97.0

Compounds listed so far that have four or more nitrogen atoms, in the order listed:
Below each compound – Rab2A wt mod, Rac1 act GTP bind, HRas wt GTP bind, Cdc42 wt GTP, Rac1 wt modul, Rab7 wt modul
O=C(N/N=C/c1ccc(Sc2ccccn2)o1)c1cccc([N+](=O)[O-])c1
    98.0, 98.0, 101.0, 100.0, 101.0, 101.0
Cc1ccc(S(=O)(=O)NC(=O)NCCCCNC(=O)NS(=O)(=O)c2ccc(C)cc2)cc1
    101.0, 96.0, 101.0, 103.0, 101.0, 104.0
Nc1nnc(-c2cccc(Cl)c2Cl)c(N)n1
    98.0, 99.0, 98.0, 103.0, 97.0, 95.0

Of the compounds above, 2 contain a CF3 group.
Below each compound – Rab2A wt mod, Rac1 act GTP bind, HRas wt GTP bind, Cdc42 wt GTP, Rac1 wt modul, Rab7 wt modul
CN(C)CCCN1c2ccccc2Sc2ccc(C(F)(F)F)cc21
    101.0, 100.0, 99.0, 102.0, 103.0, 95.0
CN1CCN(CCCN2c3ccccc3Sc3ccc(C(F)(F)F)cc32)CC1
    97.0, 103.0, 99.0, 101.0, 103.0, 93.0

Entries of single compounds, quoted from the list.
`CN(C)c1ccc(O)c2c1CC1CC3[C@@H](N(C)C)C(=O)C(C(N)=O)=C(O)[C@]3(O)C(=O)C1=C2O` (stereo not given in full) is listed with Rab2A wt mod = 98.0; Rac1 act GTP bind = 96.0; HRas wt GTP bind = 96.0; Cdc42 wt GTP = 102.0; Rac1 wt modul = 102.0; Rab7 wt modul = 93.0
`NC(=O)C1CCN(C(=O)Nc2ccccc2)CC1` is listed with Rab2A wt mod = 107.0; Rac1 act GTP bind = 103.0; HRas wt GTP bind = 106.0; Cdc42 wt GTP = 106.0; Rac1 wt modul = 105.0; Rab7 wt modul = 109.0
`COc1cccc2c1C(=O)c1c(O)c3c(c(O)c1C2=O)C[C@@](O)(C(=O)CO)C[C@@H]3O[C@H]1C[C@H](N)[C@H](O)[C@H](C)O1` is listed with Rab2A wt mod = 84.0; Rac1 act GTP bind = 83.0; HRas wt GTP bind = 83.0; Cdc42 wt GTP = 82.0; Rac1 wt modul = 90.0; Rab7 wt modul = 83.0

High-throughput results as filed in PubChem.

Only part of the results is shown; the hit share may differ from the screen's.
